NPYLR7 agonist = activates Aedes aegypti NPYLR7 receptor; HEK293T NPYLR7/Galpha15, GCaMP6s calcium fluorescence; activation, % at 10 µM; 270,000 compounds, 0.15% hits; in the data active means activation above about 40%;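 further: 0% = vehicle and 100% = reference agonist at the receptor; some compounds past the cut are filed as inactive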
NPYLR7 agonist max-min = also measured in NPYLR7 agonist; calls as there; activation, %; measured here: Max-Min RFU normalised activation; some inactives read as strong as hits;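 span of the calcium signal over five minutes; 0% = vehicle and 100% = native peptide agonist; compound fluorescence can raise it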
Active calls of the source: *; & = joins results of further samples.

Molecule	NPYLR7 agonist	NPYLR7 agonist max-min
Cc1c(C(=O)NCc2ccc(F)cc2)cc(-c2ccc(Cl)cc2)n1-c1ccc(F)cc1	12.5	19.1
CC(C)c1ccc(-n2nc(C(=O)N3CCN(C)CC3)c(=O)n(Cc3ccccc3F)c2=O)cc1	0.7	10.7
CCOC(=O)CNC(=O)N1CCCC(C(=O)c2ccc(SC)cc2)C1 (stereo not drawn)	-1.8	-3.0
CCCCNC(=O)N1CCN(c2ccccc2Cl)CC1	3.2	-2.8
Cc1cccc(C(=O)N2CCOc3ccc(CN4CCC(OCc5ccccc5)CC4)cc3C2)n1	3.1	0.3
O=C(O)C1CC(=O)N(C2CCCCCCC2)C1 (stereo not drawn)	4.0	2.9
Cc1ccn2cc(CNc3ncncc3Br)nc2c1	8.0	8.9
O=C1CC[C@@H](CN(Cc2ccncc2)C(=O)CN2CCCCCC2)N1	0.4	-0.3
O=C(COc1ccc2ccc(C(F)(F)F)nc2c1)NC1CCCCCC1	6.7	2.7
Cc1cn(Cc2nc(-c3sccc3C)oc2C)cn1	6.7	4.7
C=CCNC(=O)N1CCSC12C(=O)N(Cc1ccccc1F)c1ccc(C)cc12 (stereo not drawn)	4.2	5.8
CC(=O)c1ccc(NC(=O)Cn2cnc3c(nnn3Cc3ccc(C)cc3)c2=O)cc1	13.6	11.8
COc1cccc(CCNC(=O)c2cc(Cl)c(Cl)n2C)n1	3.4	1.2
Cc1ccc(F)c(N2C(=O)CSC2c2cccc(NC(=O)COCc3ccccc3)c2)c1 (stereo not drawn)	-6.8	5.0
Cc1ccc(NC2CCCN(C(=O)CCn3ccc(=O)[nH]c3=O)C2)cc1C (stereo not drawn)	6.3	3.0
COCCCN1COc2ccc3c(c2C1)O/C(=C\c1cc(OC)c(OC)c(OC)c1)C3=O	61.4*	57.6*
N#Cc1ccc(CO[C@]2(C(=O)NCCN3CCCC3)CC(OCC3CC3)[C@H](O)[C@H](O)C2)cc1 (stereo partly drawn)	-0.4	12.4
N#Cc1cccc(CN2C(=O)C3(SCCN3C(=O)c3ccc(F)cc3)c3ccccc32)c1 (stereo not drawn)	3.0	7.1
CC(C)CN(Cc1cccc(OS(=O)(=O)c2ccc(F)cc2)c1)C(=O)C(C)C	12.8	8.8
NC(=O)C1CCN(c2nc(CCc3ccccc3)nc3sc4c(c23)CCCC4)CC1	-3.3	-0.8
Cc1cc(C)c2c(CC(=O)NC3C=CS(=O)(=O)C3)coc2c1C (stereo not drawn)	0.4	-11.1
Cc1ccc(F)cc1C(=O)N1CCN(c2nc3ccccc3nc2-c2ccccc2)CC1	3.4	-1.4
CC(=O)N1CCC(C(=O)NCC(C)Oc2cccnc2)CC1 (stereo not drawn)	-0.6	-0.9
Cc1cc(C)c2oc(-c3ccc(NC(=O)c4cc(Cl)ccc4Cl)cc3)nc2c1	-7.1	-15.2
Cc1c(CC(=O)NCc2ccon2)c2c(n1CC(C)C)CC(C)(C)CC2=O	16.6	10.4

Quoted from the listing:
Cc1c(CC(=O)NCc2ccon2)c2c(n1CC(C)C)CC(C)(C)CC2=O in NPYLR7 agonist has 16.6
CCCCNC(=O)N1CCN(c2ccccc2Cl)CC1 in NPYLR7 agonist max-min has -2.8
Cc1cc(C)c2oc(-c3ccc(NC(=O)c4cc(Cl)ccc4Cl)cc3)nc2c1 in NPYLR7 agonist max-min has -15.2
Cc1cc(C)c2c(CC(=O)NC3C=CS(=O)(=O)C3)coc2c1C (stereo not drawn) in NPYLR7 agonist has 0.4

Next results follow.
Molecule	NPYLR7 agonist	NPYLR7 agonist max-min
CC(C)c1cccc(C(C)C)c1-n1cc[nH]c1=S	12.9	10.1
O=C(Nc1cccc(-c2nc3ccccc3o2)c1)c1ccc(Cl)c([N+](=O)[O-])c1	10.4	7.2
Cc1ccc(C(=O)Cn2nnc(-c3ccccc3C)n2)c(C)c1	2.4	-2.4
O=c1c2nc(N3CCOCC3)sc2c(-c2ccccc2)nn1CCc1ccccc1	-3.6	-6.6
Cc1ccc(C2=NN(C(=O)CN3CCN(c4ccccc4F)CC3)C(c3ccccc3F)C2)cc1C (stereo not drawn)	8.8	8.7
CC(C)CCC(C)NC(=O)N1CC2CCCN2CC1C (stereo not drawn)	18.2	15.2
c1cnc(N2CCN(c3nc4ccccc4n4cnnc34)CC2)nc1	3.2	2.1
COc1ccccc1C(C#N)NC(=O)OC(C)(C)C (stereo not drawn)	-7.1	-7.5
CNc1cc(-c2ccc(CN)cn2)c2cc[nH]c2n1	24.3	14.0
Cc1ccc(/C=C/c2nc3scc(CC(C)C)c3c(=O)[nH]2)s1	-2.0	5.0
O=C(Nc1ccc(-n2nc(OCc3ccc(F)cc3)nc2-c2ccc(C(F)(F)F)cc2)cc1)C1CCC1	10.4	16.4
COc1ncccc1CNS(=O)(=O)c1cccc(Cl)c1	0.3	-0.8
CCNC(=O)[C@@H]1CCCN1Cc1cc2cc3c(cc2[nH]c1=O)CCC3	10.2	6.1
O=C(Cn1cc2c(n1)CCCC2)NC1CCCC1	1.3	-2.6
CC(Cc1ccc2c(c1)OCO2)CN1CCn2c(nnc2C(=O)N(C)C)C1 (stereo not drawn)	7.7	3.6
O=C1Nc2ccccc2/C1=C\c1ccc(-n2ccnc2)cc1	5.5	1.6
COc1ccccc1-c1cnn2c(NCc3ccco3)ccnc12	-6.1	-10.0
CC(=O)c1ccc(C(=O)N2CCC(C(Cc3ccccc3)N(C)C(=O)c3cc(C)nn3C)CC2)s1 (stereo not drawn)	3.6	-0.1
Cc1ccc(-n2nc(C)c(CC(=O)NC(C)C)c2C)cc1Cl	-3.3	-3.4
O=C1OC2(CCCCC2)OC(=O)C1=CNc1ccc(F)cc1F	5.5	3.7
S=c1nc(-c2ccco2)[nH][nH]1	27.3	25.8
COc1cc(-c2ccc3nnc(-c4ccccc4C)n3c2)cc(OC)c1OC	42.9	23.3
CNC(=O)Cn1c(CO)cnc1SCc1cc(OC)cc(OC)c1	2.9	1.4
O=C(O)CN1c2cccc3cccc(c23)S1(=O)=O	7.1	13.3
COCCCN(CC(=O)N1CCc2sccc2C1COc1ccccc1OC)C(=O)Cc1ccccc1 (stereo not drawn)	-4.6	-0.5
Cc1cccc(NC(=O)N2CCN(CCn3nc(C)cc3C)CC2)c1	6.0	4.8
Cc1ccc(NC(=O)CCNC(=O)c2nccnc2N)c(Cl)c1	4.3	0.7
Cc1nc(SC(C)C(=O)NC(N)=O)c(C#N)c(C)c1C (stereo not drawn)	11.1	2.6
COC(c1ccc2c(c1)CN(C(=O)c1cccc(Cn3cccn3)c1)CCO2)C1CCCCC1 (stereo not drawn)	14.2	5.0
CCc1nc2ccc(C(=O)NC3CCN(Cc4ccccc4)CC3)cn2c1N(CC)CCN(C)C	5.8	1.6
O=C(Nc1cccc(F)c1)N1CCC(Cc2ccc(-c3ccccc3)cc2)CC1	1.9	9.4
CCn1cc(C(=O)N2CCCC(C(=O)Nc3cccc(-c4cc5ccccc5[nH]4)c3)C2)cn1 (stereo not drawn)	3.7	3.7
Cc1cnn(-c2cnn(CCO)c2)c1	14.1	-3.0
O=c1[nH]c(CSc2nnnn2C2CC2)nc2ccc(Cl)cc12	0.5	5.4
O=C(CCS(=O)Cc1csc(Br)c1)Nc1ccc(Cl)cc1F (stereo not drawn)	-6.5	-8.0
COc1cccc(CSc2nnc(N)s2)c1	14.6	10.8
COC(=O)c1cc2c(=O)n(-c3ccc(Cl)c(C(F)(F)F)c3)ccc2nc1C	5.7	5.2
Cc1cccc(C2=N/C(=C\c3ccccc3Cl)C(=O)O2)c1	-3.5	-7.0
CN1CCN(C(CNC(=O)NC2CCCCC2)c2ccc(N(C)C)cc2)CC1 (stereo not drawn)	9.3	7.6
Cc1ccc(O)c(CN(C)Cc2nc3ccc(F)cc3[nH]2)c1	-4.2	-8.0
COc1ccccc1C1=NN(C(=O)CN2CCc3ccccc3C2)C(c2cccc(F)c2)C1 (stereo not drawn)	-4.0	4.4
COc1ccc(-c2nc(CNC(=O)c3c(C)noc3-c3cccnc3)c(C)o2)cc1	5.5	9.9
COc1cc(C2C(C(=O)OCC3CCCO3)=C(C)NC3=C2C(=O)CCC3)cc(Cl)c1O (stereo not drawn)	-4.6	-5.9
CN(C)CC1(O)CCCN(C(=O)c2c(F)cccc2F)C1 (stereo not drawn)	-2.7	-7.3
CC(Sc1nnnn1Cc1ccccc1)C(=O)NC12CC3CC(CC(C3)C1)C2 (stereo not drawn)	-2.6	-4.1
COc1ccc(-c2nnc3ccc(SCC(=O)Nc4cc(C)ccc4C)nn23)cc1OC	13.9	11.8
c1ccc(Nc2nc(CSc3nnc4c(n3)[nH]c3ccccc34)cs2)cc1	1.8	-0.8
COc1ccc(-n2cc(-c3ccccc3)c3c(SC(C)C(C)=O)ncnc32)cc1 (stereo not drawn)	-0.3	-0.8
CCNC(=O)c1ccc(C2CCCN2C(=O)Cn2cnc3ccccc32)s1 (stereo not drawn)	4.5	3.9
Cc1c(C(=O)N2CCCC2)c(C(F)(F)F)nn1C1CCCN(C)C1 (stereo not drawn)	11.6	8.3

One compound at a time (already shown).
`O=C1Nc2ccccc2/C1=C\c1ccc(-n2ccnc2)cc1` is listed with NPYLR7 agonist: 5.5; NPYLR7 agonist max-min: 1.6
`O=C(Nc1cccc(-c2nc3ccccc3o2)c1)c1ccc(Cl)c([N+](=O)[O-])c1` is listed with NPYLR7 agonist: 10.4; NPYLR7 agonist max-min: 7.2

Fetched by structure from the list above (6):
Molecule	NPYLR7 agonist	NPYLR7 agonist max-min
CC(Sc1nnnn1Cc1ccccc1)C(=O)NC12CC3CC(CC(C3)C1)C2 (stereo not drawn)	-2.6	-4.1
C=CCNC(=O)N1CCSC12C(=O)N(Cc1ccccc1F)c1ccc(C)cc12 (stereo not drawn)	4.2	5.8
O=C(Cn1cc2c(n1)CCCC2)NC1CCCC1	1.3	-2.6
CN1CCN(C(CNC(=O)NC2CCCCC2)c2ccc(N(C)C)cc2)CC1 (stereo not drawn)	9.3	7.6
CC(C)CN(Cc1cccc(OS(=O)(=O)c2ccc(F)cc2)c1)C(=O)C(C)C	12.8	8.8
NC(=O)C1CCN(c2nc(CCc3ccccc3)nc3sc4c(c23)CCCC4)CC1	-3.3	-0.8

Next part:
Molecule	NPYLR7 agonist	NPYLR7 agonist max-min
COc1ccc(N2C(=O)CSC2c2ccc(NS(=O)(=O)c3ccc(Br)cc3)cc2)cc1 (stereo not drawn)	-0.6	2.2
O=C(c1cccc2cc[nH]c12)N1CCC(OCC2CCCO2)CC1 (stereo not drawn)	-21.2&8.1	-23.5&5.2
C=CCNc1nc(C(=O)OCC2=C(C(=O)OCC)C(C)NC(=O)N2)cs1 (stereo not drawn)	-0.6	1.1
CC(c1ccccc1)N(C)S(=O)(=O)c1ccc2[nH]c(=O)c(=O)[nH]c2c1 (stereo not drawn)	-3.5	-3.8
O=C(Nc1ccccc1SCc1ccccc1F)c1ccnnc1	-0.4	-1.6
Cc1cc(C)c2c(C(=O)O)cc(C3CC3)nc2c1	8.0	5.2
CCc1cc(=O)[nH]c(-n2nc(C)cc2NC(=O)C2CC(=O)N(c3ccccc3)C2)n1 (stereo not drawn)	2.2	-1.1
COc1ccc(C(=O)NC2CCN(c3ccccc3C(=O)NCc3ccc(F)cc3)CC2)cc1	-3.7	-3.4
CC(=O)c1ccc(N2CCN(C(=O)CCc3ncc(-c4ccc(Cl)cc4Cl)o3)CC2)cc1	1.6	1.3
Cc1ccc2nc3c(cc(C#N)c(=N)n3C)c(=O)n2c1	2.1	1.0
CC(C)CCNc1ccc(S(=O)(=O)Cc2ccc(Cl)cc2)nn1	-3.2	-10.6
CCOC(=O)c1oc2ccccc2c1CN1CCC(C2(C)OCCO2)CC1	5.3	2.8
COc1ccc(-c2nc(CSc3ccc(C(F)(F)F)cn3)cs2)cc1OC	2.2	11.8
NC(=O)Cn1cnc2c(nnn2Cc2ccccc2F)c1=O	8.0	10.2
O=C(Nc1cc(Oc2ccc(F)cc2)cc([N+](=O)[O-])c1)c1cc2nc(-c3ccco3)cc(C(F)(F)F)n2n1	2.7	-3.5
CCOC(=O)N1CCN(C(=O)c2cc(-c3ccc(OC)cc3)n(-c3cccc(OC)c3)c2C)CC1	-2.9	5.1
COc1ccccc1CCNC(=O)C(C1CCCC1)N1CCN(C(=O)c2ccccc2F)CC1 (stereo not drawn)	-9.7	-5.8
FC(F)(F)c1ccc(CN2CCN(Cc3cscn3)CC2)cc1	1.9	-2.2
COc1ccc(Nc2cc3c(cn2)cc(-c2cccnc2)n3Cc2ccccc2)cc1	-8.8	-13.0
Cc1c(Cl)cccc1NC(=O)C1CC(=O)N(C2CCCC2)C1 (stereo not drawn)	23.0	11.6
COC1OC(COC(C)=O)C(OC(C)=O)C(OC(C)=O)C1NC(C)=O (stereo not drawn)	3.8	6.2
C#CCSc1nnc2c3ccccc3n(CC)c2n1	0.1	-3.3
O=c1[nH]cc(S(=O)(=O)N2CCCCCC2)c(=O)[nH]1	-10.0	-17.3
CC(Sc1nnnn1C1CCCC1)c1nnc(-c2ccc(F)cc2)o1 (stereo not drawn)	4.1	7.2
Cc1ccc(S(=O)(=O)Nc2ccc(Nc3cc(-c4ccc(OCc5ccccc5)cc4)ncn3)cc2)cc1	9.0	3.3
O=C(c1ccc(NCc2cccnc2)nc1)N1CCC(Oc2cccnc2)CC1	3.5	0.5
CCc1cc(CNCc2cn(-c3cccc(F)c3)nc2-c2ccc(C)o2)on1	7.6	6.0
NC(=O)CSc1ccc(-c2ccncc2)nn1	9.0	-5.8
CC(C)OCCCNC(=O)c1ccc(-c2cccc(Cl)c2)s1	-8.5	0.3
CC(=O)Nc1ccc(Cl)c(C(=O)NCC(O)c2ccccc2)c1 (stereo not drawn)	5.7	1.4
O=C(c1ccc(Cl)cc1Cl)N1CCCC(OCc2ccccc2Cl)C1 (stereo not drawn)	-9.2	-2.1
COc1ccc(-n2nnc3c(=O)n(Cc4ccccc4)cnc32)cc1OC	-2.2	-6.7
Cc1nc2sccn2c(=O)c1S(=O)(=O)N1CCN(C(=O)c2ccco2)CC1	5.2	3.1

A portion of the library (hit frequency here may not be typical).
